Prx2 Sm inh = Schistosoma mansoni Prx2 inhibition | S. mansoni Prx2 activity coupled to TGR/GSH (TGR is thioredoxin glutathione reductase), NADPH fluorescence loss, qHTS; some inactives read as strong as hits | Potency, µM | 65,000 tested, 0.07% active | AID 448; active means full or partial inhibition curve with a strong effect at the top dose; inconclusive means weaker partial or single-point curve; inactive means no accepted curve; also: series up to 57 µM; many of its hits are not listed in these tables
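Coupled assay in which S. mansoni TGR passes NADPH reducing equivalents via glutathione to Prx2, which reduces H2O2. Compounds were preincubated 15 min at room temperature with 25 nM TGR/50 nM Prx2 mix. Kinetic NADPH fluorescence loss (ex 365/em 450 nm) was monitored.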
Anthrax LT inh = inhibitors of anthrax lethal toxin internalization; Cells, anthrax lethal toxin internalization, FRET ratio (460/530); Potency, µM (doses to about 40 µM), without a hit: at the top dose activity change, negative = inhibition, actives largely listed as inhibitors; 70,000 tested, 0.67% active; active = well fitted falling ratio curve with the 530 nm signal flat; inconclusive = other ratio curves, or a change in one channel alone; inactive = flat curves in the ratio and both channels; the % refers to the ratio; also: % is scaled to controls: 0 for no effect and ±100 for the full control effect; nearly all actives have a fitted effect of over 50% in size; tested in ME-180 cells; beta-lactamase reporter
* marks the source's active call; other numbers are inactive results; u = inconclusive; x = not tested or not shown; [ ] = remark or other dose. Potency is read from the fitted curve at half-maximal effect. An excerpt. The share of hits here may be higher or lower than overall.

SMILES	Prx2 Sm inh	Anthrax LT inh
CC1(c2ccccc2Cl)NC(=O)N(CC(=O)NC(=O)NCc2ccco2)C1=O (centres undefined)	>57	-9%
CCc1nnc(NS(=O)(=O)c2ccc(NC(=O)OC)cc2)s1	>57	-7%
COc1ccc(C)cc1NC(=O)c1cc2cc3ccc(C)cc3nc2o1	>57	5%
O=C(CSc1nnc(CNC(=O)c2cccs2)o1)Nc1cccc(C(F)(F)F)c1	>57	-5%
Cc1ccc(OCc2nc(C#N)c(NCCCn3ccnc3)o2)cc1	>57	16%
CC(=O)COc1cc(C)cc2oc(=O)c(C)c(C)c12	>57	7%
Cc1nc(NC2=NCN(CCCN3CCOCC3)CN2)nc2c(C)cccc12	>57	-7%
c1ccc2c(c1)NC1(CCCC1)n1c-2nc2ccccc21	>57	u
CCOC(=O)NC1(C(F)(F)F)NC(=O)N(Cc2ccco2)C1=O (centres undefined)	>57	-3%
CCn1c(SCC(=O)C(C)(C)C)nnc1-c1cnccn1	>57	-4%
COc1ccc(O[C@H]2C=C[C@@H](c3ccccc3)O[C@H]2COC(=O)N2CCCCC2)cc1	x	-3%[1.6 µM]
COc1ccc(C(=O)NCC23C=CC(O2)C2C(=O)N(Cc4ccccc4)C(=O)C23)cc1 (centres undefined)	>57	-6%
COc1ccc2c(CSc3nc4nc(C)cc(C)n4n3)cc(=O)oc2c1	u	u
O=C(NCCCN1CCOCC1)c1cc2c(s1)CSC2	>57	-17%
CC1CCCC(NC(=O)C2CCN(S(=O)(=O)N3CCOCC3)CC2)C1C (centres undefined)	>57	0%
O=C(CCN1C(=O)c2ccccc2C1=O)Nc1ccc2c(c1)OCCO2	>57	6%
c1ccc(-n2nnc3cnccc32)cc1	>57	1%
CC(NC(=O)OCc1ccccc1)C(=O)N1CC(O)CC1C(=O)O (centres undefined)	>57	u
CCn1c(-c2cc(Br)ccc2O)n[nH]c1=S	>57	-15%
c1ccc(OCCCc2nc(-c3ccncc3)no2)cc1	>57	-5%
N#CCCn1c(=O)c(-c2cccs2)nc2cnc(N3CCNCC3)nc21	>57	-3%
C=CCn1c(SCC(=O)Nc2ccccc2OC)nnc1-c1ccccn1	>57	-9%
O=C(CSc1ncn[nH]1)Nc1cccc2ccccc12	>57	3%
O=C(Oc1ccccc1)c1cccc(N2C(=O)CCC2=O)c1	x	2%
CCCC12CN3CC(C)(CN(C1)C31CCCCC1)C2=O	>57	3%
CCCCCCC=O	x	-3%
O=C(Cn1nnc(-c2ccccc2NC(=O)c2ccco2)n1)NC1CCCCC1	>57	8%
CN1CCN(c2ccc(Cl)cc2NC(=O)c2ccc(S(=O)(=O)N3CCCCCC3)cc2)CC1	>57	-1%
O=C(CSc1nnc(Cc2ccccc2)o1)NC1CC2CCC1C2 (centres undefined)	>57	u
CCCN1C(=O)c2ccc(C(=O)Nc3cc(C)on3)cc2C1=O	>57	2%
COc1cccc(OC)c1OCCNC[C@@H]1CSc2ccccc2O1	>57	u
NC(N)=NCc1cccc(I)c1	>26	u
COC(=O)c1cc2sc(Cl)cc2n1CC(=O)N1CCCc2ccccc21	>57	u
CC(C)c1ccc(NC(=O)c2cnn(-c3ccccc3)c2NC(=O)c2ccco2)cc1	x	u
COc1ccc(S(=O)(=O)NCc2ccc3c(c2)OCO3)cc1C(=O)O	x	-11%
CCc1ccccc1N=C1SCC(=O)N1C	>57	-14%
c1ccc2c(c1)CCCC2C1=NCCN1 (centres undefined)	>57	-8%
COc1cccc(NC=C2C(=O)OC(C)(C)OC2=O)c1	x	8%
CCc1ccc2nc(NC3=NCN(CCOC)CN3)nc(C)c2c1	>57	-12%
O=C1C2C3C=CC(C3)C2C(=O)N1CCN1CCN(S(=O)(=O)c2ccc3ccccc3c2)CC1 (centres undefined)	x	-17%
CSc1[nH]c(=O)c(C(=O)O)cc1C#N	>57	x
CCN(CCNC(=O)C1CCN(S(C)(=O)=O)CC1)c1ccccc1	>57	8%
CCCn1c(C)nc2c(c1=O)c1nc3ccccc3nc1n2CCc1ccccc1	>57	8%
Cc1ccc(Cn2c(SCc3cccnc3)nc3c2c(=O)n(C)c(=O)n3C)cc1	>57	3%
Cc1cc(NCCN(C)C)n2nc(-c3cccs3)cc2n1	>57	15%
Cc1ccc(S(=O)(=O)O)c(C)c1N1CCCC1=O	>57	14%
CCc1ccccc1N1CSC2=C(C#N)C(c3ccccc3F)CC(=O)N2C1 (centres undefined)	x	-1%
C=CCNS(=O)(=O)c1ccc(OC)c(C)c1	>57	2%
Cc1noc(C)c1COC(=O)Cc1ccc(Cl)c(Cl)c1	>57	-10%
COC(=O)NC(CC(C)=O)c1ccc2c(c1)OCO2 (centres undefined)	x	-9%[8 µM]
O=C1C2C(C(=O)N1Cc1ccco1)C1C=CC2C12CC2 (centres undefined)	>57	3%
Cc1cccc(NCc2ccccc2O)c1C	>57	u
CC1CCCN(CC(O)COc2ccc(Cl)cc2)C1 (centres undefined)	>57	-11%
O=C(NCc1ccco1)C1CCN(S(=O)(=O)N2CCC3(CC2)OCCO3)CC1	>57	4%
Cc1cc(C(N)=O)c2cc(Br)ccc2n1	>57	2%
CCOC(=O)CCc1nc2ccccc2[nH]1	>57	-8%
CCOC(=O)N1CCC(NCCNC(=O)c2ccc(Cl)cc2)CC1	>57	u
OC[C@@H]1NC[C@@H](O)[C@H]1O	>57	10%
COC(=O)NC(c1ccco1)[C@]1(C(C)=O)CCCC1=O (some centres undefined)	x	-19%[8 µM]
C=CCNc1nc(N)c(C(=O)Nc2cc(C)on2)s1	>57	-11%
(continued)
SMILES	Prx2 Sm inh	Anthrax LT inh
Cc1ccc(-c2nn3c(C)nnc3s2)cc1NC(=O)c1cccnc1	>57	-4%
CN(C)c1ccc(/C(=N\O)c2ccccc2)cc1	x	u
CNC(=O)/C(=N\O)c1ccccc1	>57	-12%
Cc1cc(=O)oc2c(CN3CCOCC3)c(O)ccc12	x	u
COc1ccccc1-c1cc(C(=O)Nc2cc(C)n(Cc3ccc(Cl)cc3)n2)no1	>57	u
CCCCOC(=O)Nc1nnc(COc2ccccc2)s1	x	-5%
CCCc1cc(C(=O)Nc2sc(C(C)=O)c(C)c2C(=O)OCC)no1	>57	-8%
COc1ccc(N2C(=O)C3C4C=CC(C4)C3C2=O)nn1 (centres undefined)	>57	3%
CCc1cc2c(=O)c(-c3nc4ccccc4n3C)c(C(C)C)oc2c(CN2CCN(C)CC2)c1O	x	-10%
Cc1nc2c(O)cccc2c(=O)[nH]1	>57	u
CC1(C)CC(=O)C2=C(C1)N(c1cccc(O)c1)C1=C(C2)C(=O)CC(C)(C)C1	>57	u
COc1cc2nc(CN3CCN(c4ncc(C(F)(F)F)cc4Cl)CC3)[nH]c(=O)c2cc1OC	>57	u
Cc1ccc(-c2nnn(CC(=O)N3CCN(c4nc5ccccc5s4)CC3)n2)cc1	>57	u
COc1cccc(N2CC(C(=O)Nc3c(C)cccc3C)CC2=O)c1 (centres undefined)	>57	-3%
c1ccc(-c2ccccc2-n2cnnn2)cc1	>57	-10%
N#C/C=C1\Sc2ccccc2C(=O)N1CC(=O)N1CCN(S(=O)(=O)c2ccccc2)CC1	>57	-11%
Cc1ccc(S(=O)(=O)NCc2ccccc2)cc1	>57	u
COC(=O)C1=C(N)OC2=C(C(=O)CC(C)(C)C2)C1c1ccoc1 (centres undefined)	>57	-3%
C(=N\c1nccs1)/c1c[nH]c2ccccc12	>57	2%
c1csc(Cc2nc3ccccc3[nH]2)c1	>57	-12%

Some values from above.
N#C/C=C1\Sc2ccccc2C(=O)N1CC(=O)N1CCN(S(=O)(=O)c2ccccc2)CC1 | Prx2 Sm inh: >57
CC1(C)CC(=O)C2=C(C1)N(c1cccc(O)c1)C1=C(C2)C(=O)CC(C)(C)C1 | Prx2 Sm inh: >57

Molecules shown so far with bromine:
SMILES	Prx2 Sm inh	Anthrax LT inh
CCn1c(-c2cc(Br)ccc2O)n[nH]c1=S	>57	-15%
Cc1cc(C(N)=O)c2cc(Br)ccc2n1	>57	2%

Going on with the list.
SMILES	Prx2 Sm inh	Anthrax LT inh
CCN1CCCC1CNC(=O)Cn1cnc2ccc(S(=O)(=O)N3CCC(C)CC3)cc2c1=O (centres undefined)	>57	u
Cc1ccsc1CN1CCN(c2ccccn2)CC1	x	-15%
CN(Cc1ccccc1)S(=O)(=O)c1ccc(S(=O)(=O)N2CCN(CCC#N)CC2)cc1	>57	1%
O=C(Oc1nsnc1N1CCOCC1)N1CCOCC1	>57	3%
COc1ccc2[nH]c(=O)c(CN(C)C(=O)C3CCCCC3)cc2c1	>57	-6%
Cc1ccc(C)c2[nH]c(=O)c(CCNC(=O)CC(C)(C)C)cc12	>57	13%
Cc1cc(C)nc(N2CCC(C(=O)NCCc3ccccc3)CC2)n1	>57	-10%
Cc1cc(C)c2nc(SCC#N)cc(C)c2c1	>57	u
Cc1noc(C)c1COC(=O)CCCc1c[nH]c2ccccc12	>57	-15%
CC(C)c1ccc(NS(=O)(=O)c2ccc3[nH]cc(C(=O)N4CCC(C(N)=O)CC4)c(=O)c3c2)cc1	>57	9%
COc1cc2c(C#N)c(N3CCCCC3)nc(N)c2c(N)n1	>57	u
Nc1ccn([C@@H]2O[C@H](COC(=O)C34CC5CC(CC(C5)C3)C4)[C@@H](O)[C@@H]2O)c(=O)n1	>57	u
Cc1cc(C)n(-c2nc(C)nc3sc4c(c23)CCC(C)C4)n1 (centres undefined)	>57	-5%
O=C(O)c1cccc(N2C(=O)CCC2=O)c1	x	2%
O=C(Nc1ccc(F)cc1)N1CCOCC1	>57	-15%
Cc1occc1-c1nnc(SCC(=O)N2CCCc3ccccc32)n1Cc1ccco1	>57	-11%
COc1ccccc1N1CCN(C(=O)c2ccccc2Oc2ccccc2)CC1	>57	x
Cn1cc(S(=O)(=O)N2CCN(C(=O)c3ccco3)CC2)c(=O)n(C)c1=O	>57	-1%
CC(C)CC(NC(=O)C1CCCCC1)C(=O)N1CCC2(CC1)OCCO2 (centres undefined)	>57	-3%
CC(N)CN (centres undefined)	x	0%

Part of the list above in a different format.
Each structure is followed by: Prx2 Sm inh | Anthrax LT inh
COc1ccc(N2C(=O)C3C4C=CC(C4)C3C2=O)nn1 (centres undefined)
→ >57 | 3%
CCc1cc2c(=O)c(-c3nc4ccccc4n3C)c(C(C)C)oc2c(CN2CCN(C)CC2)c1O
→ x | -10%
Cc1nc2c(O)cccc2c(=O)[nH]1
→ >57 | u
CC1(C)CC(=O)C2=C(C1)N(c1cccc(O)c1)C1=C(C2)C(=O)CC(C)(C)C1
→ >57 | u
COc1cc2nc(CN3CCN(c4ncc(C(F)(F)F)cc4Cl)CC3)[nH]c(=O)c2cc1OC
→ >57 | u
Cc1ccc(-c2nnn(CC(=O)N3CCN(c4nc5ccccc5s4)CC3)n2)cc1
→ >57 | u
COc1cccc(N2CC(C(=O)Nc3c(C)cccc3C)CC2=O)c1 (centres undefined)
→ >57 | -3%
c1ccc(-c2ccccc2-n2cnnn2)cc1
→ >57 | -10%
N#C/C=C1\Sc2ccccc2C(=O)N1CC(=O)N1CCN(S(=O)(=O)c2ccccc2)CC1
→ >57 | -11%
Cc1ccc(S(=O)(=O)NCc2ccccc2)cc1
→ >57 | u
COC(=O)C1=C(N)OC2=C(C(=O)CC(C)(C)C2)C1c1ccoc1 (centres undefined)
→ >57 | -3%
C(=N\c1nccs1)/c1c[nH]c2ccccc12
→ >57 | 2%
c1csc(Cc2nc3ccccc3[nH]2)c1
→ >57 | -12%
CCN1CCCC1CNC(=O)Cn1cnc2ccc(S(=O)(=O)N3CCC(C)CC3)cc2c1=O (centres undefined)
→ >57 | u
Cc1ccsc1CN1CCN(c2ccccn2)CC1
→ x | -15%
CN(Cc1ccccc1)S(=O)(=O)c1ccc(S(=O)(=O)N2CCN(CCC#N)CC2)cc1
→ >57 | 1%
O=C(Oc1nsnc1N1CCOCC1)N1CCOCC1
→ >57 | 3%
COc1ccc2[nH]c(=O)c(CN(C)C(=O)C3CCCCC3)cc2c1
→ >57 | -6%
Cc1ccc(C)c2[nH]c(=O)c(CCNC(=O)CC(C)(C)C)cc12
→ >57 | 13%
Cc1cc(C)nc(N2CCC(C(=O)NCCc3ccccc3)CC2)n1
→ >57 | -10%
Cc1cc(C)c2nc(SCC#N)cc(C)c2c1
→ >57 | u
Cc1noc(C)c1COC(=O)CCCc1c[nH]c2ccccc12
→ >57 | -15%
CC(C)c1ccc(NS(=O)(=O)c2ccc3[nH]cc(C(=O)N4CCC(C(N)=O)CC4)c(=O)c3c2)cc1
→ >57 | 9%
COc1cc2c(C#N)c(N3CCCCC3)nc(N)c2c(N)n1
→ >57 | u
Nc1ccn([C@@H]2O[C@H](COC(=O)C34CC5CC(CC(C5)C3)C4)[C@@H](O)[C@@H]2O)c(=O)n1
→ >57 | u
Cc1cc(C)n(-c2nc(C)nc3sc4c(c23)CCC(C)C4)n1 (centres undefined)
→ >57 | -5%
O=C(O)c1cccc(N2C(=O)CCC2=O)c1
→ x | 2%
O=C(Nc1ccc(F)cc1)N1CCOCC1
→ >57 | -15%
Cc1occc1-c1nnc(SCC(=O)N2CCCc3ccccc32)n1Cc1ccco1
→ >57 | -11%
COc1ccccc1N1CCN(C(=O)c2ccccc2Oc2ccccc2)CC1
→ >57 | x
Cn1cc(S(=O)(=O)N2CCN(C(=O)c3ccco3)CC2)c(=O)n(C)c1=O
→ >57 | -1%
CC(C)CC(NC(=O)C1CCCCC1)C(=O)N1CCC2(CC1)OCCO2 (centres undefined)
→ >57 | -3%
CC(N)CN (centres undefined)
→ x | 0%

Bioassay records deposited in PubChem by National Center for Advancing Translational Sciences (NCATS).
